# From PubChem BioAssay
# KCNQ2 enhance – KCNQ2 (rat) channel potentiation; CHO-K1 KCNQ2, FluxOR thallium flux fluorescence; hits give high values; B-score at 10 µM; 0.54% of 310,000 active; O88943;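 active means fluorescence ratio B-score at least 3 SD of library B-scores, with initial fluorescence B-score within 3 SD, cut at about 5.3 in these data; same plate scores as AID 2156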;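 further: B-score of peak minus minimum over baseline fluorescence ratio after K+ and Tl+ stimulus; positive B-score means potentiation of KCNQ2 with more thallium influx and brighter signal; only the inactives scoring about 0 or higher are listed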
# Target sequence (O88943 whole entry, looked up): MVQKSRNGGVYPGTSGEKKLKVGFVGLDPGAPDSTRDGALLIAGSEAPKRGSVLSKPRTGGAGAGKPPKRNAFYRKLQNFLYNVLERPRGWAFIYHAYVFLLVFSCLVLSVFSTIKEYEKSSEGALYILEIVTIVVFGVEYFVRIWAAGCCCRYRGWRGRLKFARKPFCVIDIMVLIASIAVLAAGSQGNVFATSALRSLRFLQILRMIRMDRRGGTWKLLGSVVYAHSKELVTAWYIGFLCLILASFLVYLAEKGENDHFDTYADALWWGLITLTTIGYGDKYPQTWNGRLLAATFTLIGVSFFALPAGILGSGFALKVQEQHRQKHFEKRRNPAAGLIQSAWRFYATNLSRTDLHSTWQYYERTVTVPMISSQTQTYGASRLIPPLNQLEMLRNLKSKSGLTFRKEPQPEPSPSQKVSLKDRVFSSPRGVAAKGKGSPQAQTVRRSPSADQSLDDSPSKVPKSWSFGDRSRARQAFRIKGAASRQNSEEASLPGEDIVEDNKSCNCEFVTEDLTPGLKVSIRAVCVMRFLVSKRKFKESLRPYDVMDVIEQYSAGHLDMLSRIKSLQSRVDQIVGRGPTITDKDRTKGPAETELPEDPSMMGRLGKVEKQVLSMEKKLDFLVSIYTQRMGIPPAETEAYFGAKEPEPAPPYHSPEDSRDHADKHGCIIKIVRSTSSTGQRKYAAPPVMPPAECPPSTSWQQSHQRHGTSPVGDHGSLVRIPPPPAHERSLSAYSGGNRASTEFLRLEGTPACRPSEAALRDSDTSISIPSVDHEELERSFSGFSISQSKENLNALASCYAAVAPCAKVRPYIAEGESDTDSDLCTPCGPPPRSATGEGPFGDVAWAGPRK
# KCNQ2 enhance baseline – second read-out of KCNQ2 enhance, no call of its own (marks repeat the call); B-score; compound at 10 µM; measured here: initial fluorescence intensity artifact check;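 brightness before thallium and not channel activity; 0 = typical well and far values either way flag optical interference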
# * marks the source's active call; other numbers are inactive results; & = joins results of further samples. These rows are one share of the data; the hit share may differ from the screen's.
compound,KCNQ2 enhance baseline,KCNQ2 enhance
CC(C)C1C(=O)NC(=S)N1S(=O)(=O)c1ccc(C(C)(C)C)cc1 (stereo not given),-1.4,1.9
NS(=O)(=O)c1ccc(NC(=O)c2cc(=O)c3ccccc3o2)cc1,-0.04,0.72
CC/C(O)=C(/C#N)c1nnc2n1CCCCC2,-0.27,0.41
COc1ccc2cc(C)c3nnc(SCc4cccnc4)n3c2c1,-0.52,0.59
COCCCNC(=S)Nc1cccc(S(=O)(=O)NC2=NCCC2)c1,1.2,0.71
CCOC(=O)C1(Cc2ccccc2C)CCCN(C(=O)CCC(=O)OC)C1 (stereo not given),0.83,0.5
CC(C)OC(=O)CSc1nc(-c2ccc(F)cc2)nc2ccc(F)cc12,-2,0.03
Clc1ccc2nc(N3CCN(c4ccccc4)CC3)sc2c1,0.71,1.5
COc1ccccc1C1/C(=C(/O)c2ccccc2)C(=O)C(=O)N1CCO (stereo not given),-1.8,0.81
COc1cc(C2C3=C(CC(C)(C)CC3=O)N(C)C(=O)N2C)cc(OC)c1OC (stereo not given),1.3,0.28
CC(NC(=O)c1ccccc1NC(=O)c1ccccc1)C(=O)N1CCOCC1 (stereo not given),0.51,0.44
OCC1(CCOc2ccccc2)CCN(Cc2nc3ccc(F)cc3[nH]2)CC1,-3.2,0.3
CSc1ccccc1NC(=O)CN(C)CC(=O)Nc1ccc(N2CCOCC2)cc1,-2,1.3
Cc1cc2ncc(S(C)(=O)=O)c(N)n2n1,-1.2,1.7
Cc1cc(C)c(S(=O)(=O)N2CCN=C2c2ccccc2)c(C)c1,-0.23,0.31

# Some values from above:
# CC(NC(=O)c1ccccc1NC(=O)c1ccccc1)C(=O)N1CCOCC1 (stereo not given) in KCNQ2 enhance has 0.44
# COc1ccc2cc(C)c3nnc(SCc4cccnc4)n3c2c1 in KCNQ2 enhance baseline has -0.52

# Later entries.
compound,KCNQ2 enhance baseline,KCNQ2 enhance
COC(=O)C(Cc1ccc(O)cc1)NC(=O)C(C)NC(=O)c1ccc(C(C)(C)C)cc1 (stereo not given),0.61,0.17
CCCNC(=O)c1onc(CS(=O)(=O)c2cccc(OC)c2)c1C(=O)NCCC,-0.01,1
CC(O)CCC(=O)NNC1CC(=O)N(c2ccccc2)C1=O (stereo not given),2.1,0.08
CSc1ccc(CN(C)C(=O)c2cc(=O)[nH]c3ccccc23)cc1,-1.1,0.34
O=C(Cc1ccc(Cl)cc1)NCC(=O)N1CCCC1,-0.5,0.84
O=C(NC(=S)Nc1ccccc1)c1ccc(-c2ccccc2)cc1,-0.52,0.29
CCN(CC)S(=O)(=O)c1ccc(NC(=O)CSc2nnc(-c3cccc(OC)c3)n2C)cc1,-3.4,0.91
O=C(CCNS(=O)(=O)/C=C/c1ccccc1)NCCc1c[nH]c2ccccc12,-1.2,1
CCCCn1c(O)c(N=NC(=O)c2ccccc2NS(=O)(=O)c2cccs2)c2ccccc21,-0.77,0.28
CCn1c2ccccc2c2cc(CNCCCN3CCOCC3)ccc21,-0.47,0.86
Cc1ccc(CN2CCC(Oc3cccc(C(=O)N(C)CCN(C)C)c3)CC2)cc1C,0.01,0.35
COc1cc(C(=O)Nc2cc(C)c(OCC(=O)N3CCOCC3)c(C)c2)cc(OC)c1OC,4.3,1.3
Cc1c(NC(=S)N/N=C/c2cccc(O)c2)c(=O)n(-c2ccccc2)n1C,0.08,0.54
Cc1ccc(S(=O)(=O)N2CCCC(C(=O)NC3CC3)C2)cc1 (stereo not given),0.85,2.2
COc1ccc(/C=C/C(=O)NC(=S)N2CCCCC2)cc1OC,1.4,0.04
COc1ccc2nc(C(C)O)[nH]c2c1 (stereo not given),0.42,0.06
Cn1c(SCC(=O)Nc2nccs2)nnc1C12CC3CC(CC(C3)C1)C2,0.26,0.02
CCCCNC(=O)c1sc(=S)n(-c2ccccc2OC)c1N,0.34,0.73
COc1ccc(C2CCCN2C(=O)Nc2cccc(C(C)=O)c2)cc1OC (stereo not given),0.59,0.07
Nc1ccc(OCC(O)C[n+]2ccc(CCS(=O)(=O)[O-])cc2)cc1 (stereo not given),-0.26,0.31
NC(=O)COc1ncn(-c2ccccc2)n1,0.7,0.25
CC(/C=N\NC(=O)Cn1c(C)nc2ccccc21)=C\c1ccccc1,-0.36,0.99
C#CCOCCOCCOCCNc1nc(N2CCOCC2)nc(N2CCN(C(=O)[C@H](C)n3cc(CCCN=C(N)N)nn3)CC2)n1,-0.09,0.2
Nc1cc(=O)[nH]c(SCc2ccccc2Cl)n1,-0.09,0.03
C=CCn1c(Cc2csc(N)n2)nnc1SCc1ccc(C(=O)OC)cc1,-0.32,0.64
COc1cc(OC)cc(-c2cc3nc(C)c(CCC(=O)O)c(=O)n3[nH]2)c1,1.2,0.3
Cc1ccc2cc(CN(CCN3CCOCC3)C(=O)NCc3ccccc3)c(=O)[nH]c2c1C,-0.71,0.08
CN(C)CCCOc1nc2c(c(=O)n(C)c(=O)n2C)n1C,0,0.72
O=C(O)C[C@H]1c2cc(C(F)(F)F)ccc2S(=O)(=O)N1C1CCCCC1,0.27,0.59
COc1ccc(NS(=O)(=O)c2cc(C)ccc2OC)cc1OC,0.26,0.97

# Molecules shown so far with a tert-butyl group, in the order listed:
compound,KCNQ2 enhance baseline,KCNQ2 enhance
CC(C)C1C(=O)NC(=S)N1S(=O)(=O)c1ccc(C(C)(C)C)cc1 (stereo not given),-1.4,1.9
COC(=O)C(Cc1ccc(O)cc1)NC(=O)C(C)NC(=O)c1ccc(C(C)(C)C)cc1 (stereo not given),0.61,0.17

# Next part
compound,KCNQ2 enhance baseline,KCNQ2 enhance
CN(Cc1ccccc1)C(=O)CCC1CCN(C(=O)CCC(F)(F)F)CC1,-1.1,0.06
CCOCCCNC(=O)c1oc2ccc3c(c2c1C)C(O)CC(C)(C)O3 (stereo not given),0.37,0.07
Cc1cccc(CCNC(=O)CCS(=O)(=O)c2ccc(Br)cc2)c1,0.06,2
Cc1ccc(NC(=O)Cn2nc(C(=O)O)c3ccccc3c2=O)c([N+](=O)[O-])c1,0.5,0.03
O=C(/C=C/c1cccc([N+](=O)[O-])c1)NC(=S)Nc1cccc(NC(=O)c2ccccc2Cl)c1,0.07,0.58
C/C=C(/C)C(=O)Nc1cccc(C2=NOC3(C2)C[C@@H](C(N)=O)N(C(=O)/C=C/CC)C3)c1 (stereo not given in full),-0.51,0.29
Cc1ccc(CS(=O)(=O)CCC(=O)NCCCOC(C)C)cc1,0.82,0.52
CCCC1(C)NC(=O)c2ccccc2O1 (stereo not given),-1.4,0.24
Cc1ccn(C(=O)c2ccc(NC(=O)C3CC3)cc2)n1,-0.99,0.38
CNC(=O)c1[nH]cnc1C(=O)N[C@@H](C)C(=O)OC(C)(C)C,1.6,0.38
CCOC(=O)c1cnc2c(C)c(Cl)ccc2c1Nc1ccc(S(=O)(=O)Nc2ncccn2)cc1,-1.4,0.05
CCOc1ccccc1NC(=O)c1cc(C(=O)c2cc(Br)ccc2O)coc1=N,-0.02,0.08
Cc1sc2ncnc(SCC(=O)NC3CC3)c2c1C,0.62,0.59
COc1ccc(-c2csc3nc(C)n(-n4cccc4)c(=O)c23)cc1,0.72,0.98
NC(=O)c1c(NC(=O)c2ccccc2)sc2c1CCC2,0.1,0.03

# The last two compounds of the section before lead into the next.
compound,KCNQ2 enhance baseline,KCNQ2 enhance
COc1ccc(-c2csc3nc(C)n(-n4cccc4)c(=O)c23)cc1,0.72,0.98
NC(=O)c1c(NC(=O)c2ccccc2)sc2c1CCC2,0.1,0.03
O=C(Nc1ccc(N2CCOCC2)cc1)c1cn2ccccc2n1,-1.2,0.58
COC(=O)CC(=O)CSc1nc2c(cc1C#N)CCC2,-1.4,0.08
CCCC(=O)Nc1ccc(C(=O)N/N=C/c2ccc[nH]2)cc1,-0.44,0.03
O=C(O)CCc1ncc(C(F)(F)F)cc1Cl,-0.55,1.4
CCC(C)NC(=O)Nc1ccc(Br)cc1 (stereo not given),-0.12,0.81
CC(C)OC(=O)c1ccccc1C(=O)c1ccc(N)c([N+](=O)[O-])c1,-3.4,0.89
COc1ccc(C(C)=O)cc1COC(=O)c1ccc2ccccc2n1,0.04,1.6
O=C(NCc1ccccc1Cl)C1CCN(S(=O)(=O)c2cccc3nonc23)CC1,0.21,1.7
COC(=O)COc1cccc2c(=O)n(CC(=O)NCc3ccccc3)ccc12,1.1,0.93
CCS(=O)(=O)N1Cc2ccccc2CC1C(=O)Nc1nnc(SCc2ccc(C#N)cc2)s1 (stereo not given),-1.7,0.01
COc1ccc(NC(=O)CC2C(=O)N(c3ccc(OC)cc3)C(=O)N2CCc2cccs2)cc1 (stereo not given),0.91,0.52
CS(=O)(=O)N1CCC(C(=O)Nc2ccc(OCc3ccccc3)cc2)CC1,-1.1,0.27
COc1ccc(C(=O)Nc2ccc(Nc3ccccc3)cc2)cc1[N+](=O)[O-],1.5,0.05
CO/N=C/C(C#N)=C/c1cc(C(=O)c2ccccc2)cn1C,0,1.5
COc1cccc(-n2c(-c3ccccc3)c[nH]c2=S)c1,-0.94,1.6
CCOC(=O)CC1CCCCN1Cc1cn[nH]c1-c1ccc(F)cc1F (stereo not given),0.8,0.03
O=C(NCCC1CCCCN1S(=O)(=O)c1ccc(F)cc1)C(=O)Nc1ccccc1F (stereo not given),-1,0.28
CC(C)c1ccccc1NC(=S)NCC1(N(C)C)CCCCC1,0.82,1.5
C#CCNC(=O)C1=C[C@H](c2ccc3c(c2)OCO3)C[C@H](OCc2ccc(CO)cc2)O1,0.89,0.01
CCN(C(=O)c1cccc(Br)c1)C1CCS(=O)(=O)C1 (stereo not given),0.33,1.7
Cc1ccc(/C=N/NC(=O)CSc2nc3ccccc3o2)cc1,-1.9,0.28
COc1ccc(CNC(=O)CN(Cc2ccc(C)cc2)C(=O)c2csnn2)cc1,-1.4,1.9
CN(C(=S)NC1CCCCC1)C1(c2ccccc2Cl)CCCCC1=O (stereo not given),0.31,0.04
O=C(COCc1nc2ccccc2c(=O)[nH]1)NC1CCCC1,0.34,0.54
Cc1c(C(=O)NCCCN2CCOCC2)sc2nc(-c3ccccc3)cn12,-0.09,2.3
COC(CNC(=O)CNC(=S)N(CCCN1CCOCC1)Cc1cccs1)OC,-0.4,1.7
O=S(=O)(N/N=C/c1ccc(N2CCOCC2)cc1)c1ccccc1,1.2,0.3
Cc1ccc(NC(=O)CCN2CC(C)OC(C)C2)cc1 (stereo not given),1.4,0.48
CC(=O)Cc1nsc(NC(=O)C2Cc3ccccc3C(=O)O2)n1 (stereo not given),-0.15,0.11
COc1ccc(NC(=O)c2oc3ccccc3c2NC(=O)C2CC2)cc1OC,-0.49,1.2

# Of the compounds above, these contain a COOH group.
compound,KCNQ2 enhance baseline,KCNQ2 enhance
COc1cc(OC)cc(-c2cc3nc(C)c(CCC(=O)O)c(=O)n3[nH]2)c1,1.2,0.3
O=C(O)C[C@H]1c2cc(C(F)(F)F)ccc2S(=O)(=O)N1C1CCCCC1,0.27,0.59
Cc1ccc(NC(=O)Cn2nc(C(=O)O)c3ccccc3c2=O)c([N+](=O)[O-])c1,0.5,0.03
O=C(O)CCc1ncc(C(F)(F)F)cc1Cl,-0.55,1.4

# Other structures follow.
compound,KCNQ2 enhance baseline,KCNQ2 enhance
O=C(O)C1C2C=CC(C2)C1C(=O)NCc1ccoc1 (stereo not given),0.18,0.09
Cc1ccc(C)c(OCCC(=O)OCC(=O)Nc2ccc(C)c(S(=O)(=O)N3CCCCC3)c2)c1,1.5,0.75
CC(C)(C)c1ccc(C(=O)NNC(=S)NCC2CCCO2)cc1 (stereo not given),0.64,1.5
CCOC(=O)N1CCN(C(=O)C2CCN(S(=O)(=O)c3ccc(OCC)cc3)CC2)CC1,-1.7,1.1
Oc1c(C=C2N=c3ccccc3=N2)sc(=S)n1-c1ccc(F)cc1,2.1&-1.2,0.48&1.6
O=c1cc(CO)occ1OCc1ccccc1,-0.03,0.48
COc1ccc(C2Nc3ccccc3NC3=C2C(=O)CC(C)(C)C3)c(OC)c1OC (stereo not given),0.48,0.9
Cn1c(=O)c(-c2ccccc2)nc2ccccc21,-1.5,0.92
Cn1c(/C(C#N)=C(\O)c2ccc(Cl)s2)nc2ccccc21,1.4,0.5
O=C(C1CC(=O)N(C2CCCC2)C1)N1CCC(Cc2ccccc2)CC1 (stereo not given),0.63,0.61
COC(=O)/C=C\C(=O)Nc1cccc([N+](=O)[O-])c1,2.1,1.8
Clc1ccc(-c2cn3c(n2)SCC3)cc1,0.04,0.33
COc1cc2c(cc1OC)CN(C(=O)COc1ccccc1C#N)CC2,-0.03,0.65
CON(C)S(=O)(=O)c1cccc(C(=O)Oc2ccc(N(C)S(=O)(=O)c3ccccc3)cc2)c1,1,0.64
S=C(NCCc1ccccc1)N1CCOCC1,-0.09,1.1
O=c1c(-c2ccc(O)cc2)coc2cc(O)ccc12,0.55,0.08
Cc1ccccc1-c1nc(SCc2cccnc2)c2c(=O)n(C)c(=O)n(C)c2n1,-2.1,1.3
COc1ccc(Cn2nnc3c(=O)[nH]c(C(=O)NCCc4ccc(F)cc4)nc32)cc1OC,0.61,2.2
CN(C(=O)COC(=O)CN1C(=O)C2CC=CCC2C1=O)c1ccccc1 (stereo not given),0.01,1.8
COc1c2occc2c(OC)c2c(=O)cc(C(F)(F)F)oc12,-2.3,0.59
COc1ccc(CCN2C(=O)c3cccc4cccc(c34)C2=O)cc1OC,1.9,0.04
COc1cc(NC(=O)c2ccc(Br)o2)ccc1NC(=O)C(C)C,-3.8,0.9
CCN(CCn1cccn1)C(=O)CC1C(=O)NCCN1Cc1cccc(OC)c1OC (stereo not given),1.3,1.2
